H5N1 CPE – MDCK cell protection from H5N1 avian flu; inhibition, % at 50 µM; cytopathic effect, luminescence, 72 h; hits give high values; no value below 0 was filed and about half of the inactive calls have no number; reference of the scale not given here; AID 740; 0.07% of 96,000 active; in the data active = inhibition above about 25%
Active calls of the source: *; i = inactive.

SMILES | H5N1 CPE
CCCn1nc2cc(C(=O)NCCc3cccs3)ccc2c1OCC | i
O=C1CCCc2sc3c(c2N1)CCCCC3 | 0.1
Cn1c(=Nc2ccc(N3CCOCC3)cc2)ccc2ccccc21 | 0.1
Cc1nc(CS(=O)(=O)c2ccccc2)cc(Sc2ccccc2Cl)n1 | 1.6
O=C(NCC1OCCc2ccccc21)c1ccco1 (stereo unspecified) | i
Cn1c(=O)c2c(ncn2CC(=O)N2CCc3ccccc3C2)n(C)c1=O | i
COC(=O)c1ccc(NC(=S)NC2CCCCC2)cc1 | 0.3
O=C(NCCCNCCCNC(=O)c1ccccn1)c1ccccn1 | i
CCCCn1c(C)cc(C)c(S(=O)(=O)c2ccccc2C)c1=O | 0.9
COc1cc2c(cc1OC)CN(CC(=O)Nc1cccc(C)c1)CC2 | i
c1ccc(C[n+]2cccc3c4ccccc4ccc32)cc1 | i
COCCCNC(=O)COc1cc(C)c(Cl)c(C)c1 | 0.3
CC(=O)Nc1ccc(S(=O)(=O)N(Cc2ccccc2)C(C)C)cc1 | 0.8
COc1ccc(OC)c(Nc2nc(-c3ccc(O)c(O)c3)cs2)c1 | 2.3
CCc1nnc(NC(=O)CSc2nc3c(c(=O)n2C)SC(C)C3)s1 (stereo unspecified) | 2.0
COc1ccccc1CNC(=O)CN(c1ccc(C)cc1)S(=O)(=O)c1c(C)nn(C)c1C | 0.8
Cc1ccc(S(=O)(=O)NNC(=O)c2snnc2C)cc1 | 1.0
CCOc1cc(C)c(C(C)C)cc1S(=O)(=O)N1CCN(C)CC1 | i
CCn1c(=O)n(CC(=O)Nc2cccc(OC)c2)c(=O)c2ccccc21 | 1.2
Cc1cc2cc3c(cc2nc1SCC(=O)OC(C)C)OCO3 | i
COc1ccc(C(C)=O)cc1CSc1nc2cc(Cl)ccc2o1 | i
O=C(CCN1C(=O)C2CC=C(Cl)CC2C1=O)NC1CCCCC1 (stereo unspecified) | i
Nc1nonc1C(=O)N/N=C/c1ccc(-c2cccc([N+](=O)[O-])c2)o1 | i
O=C(NC1CCCC1)c1ccc(S(=O)(=O)N2CCOCC2)cc1 | i
Cc1oc(-c2cccc(Cl)c2)nc1CN1CCC(C(=O)NCc2ccco2)CC1 | 0.1
CC1CN(CCc2ccccc2)c2nc3c(c(=O)[nH]c(=O)n3C)n2C1 (stereo unspecified) | 2.1
Cc1ccc(C)c(CSc2nnc(-c3cccnc3)n2N)c1 | i
CCOC(=O)CC(=O)CSc1nc2sc(C)cc2c(=O)n1Cc1ccco1 | 0.4
O=C(CN1CCC(N2CCCCC2)CC1)N1CCCc2ccccc21 | 0.5
O=S(=O)(Nc1ccc(S(=O)(=O)Nc2nccs2)cc1)c1ccc2c(c1)OCCO2 | i
COc1cccc(C2=NN(C(=O)c3ccccc3)C(O)(C(F)(F)F)C2)c1 (stereo unspecified) | i
CCn1cc(C(=O)NCc2ccco2)c(=O)c2cc(F)c(N3CCN(C(=O)c4ccco4)CC3)cc21 | i
Cn1c(SCC(=O)NC(=O)NCc2ccco2)nnc1-c1ccccc1 | i
COc1ccc(NC(=O)Nc2ccccc2F)cc1 | 1.1
O=C(COC(=O)CCc1ccc(S(=O)(=O)N2CCOCC2)cc1)Nc1ccc(Cl)cn1 | i
Cc1cc(NC(=O)C2CC(c3ccccc3Cl)=NO2)no1 (stereo unspecified) | 0.4
Cc1ccc(C)c(N2CCN(C(=O)c3cc4sccc4n3C)CC2)c1 | i
Cn1c(=O)c2c(O)cc(=O)n(-c3ccccc3)c2n(C)c1=O | i
Cc1cc2ncn(C(=O)c3ccc4c(c3)OCO4)c2cc1C | 0.7
COC(=O)c1sc(NC(=O)CSc2nc3cccnc3n2C2CCCCC2)nc1C | i
CN1CCN(C(=O)CCn2nc(-c3ccccc3)c3ccccc3c2=O)CC1 | 0.9
Cc1ccc(S(=O)(=O)N2CCOCC2)cc1C(=O)NC1CCCCC1 | 0.4
Cc1ccc(C)n1-c1ccc(C(=O)NCC2CCCO2)cc1 (stereo unspecified) | 0.6
O=C(CSc1nnnn1C1CCCCC1)Nc1ccc2c(c1)OCO2 | 0.3
CCC(C(=O)NCc1ccco1)n1nc(-c2ccc(OC)cc2)ccc1=O (stereo unspecified) | i
CC(=O)c1cccc(NC(=O)CN2C(=O)COc3ccc(Cl)cc32)c1 | i
Cc1sc(N/N=C/c2cccnc2)nc1-c1ccccc1 | i
N#Cc1nc(-c2ccco2)oc1N1CCC(Cc2ccccc2)CC1 | 0.5
C1CSC2(N1)C1CC3CC(C1)CC2C3 (stereo unspecified) | 0.1
CC(C)(C)c1ccc(-c2cc(N)n[nH]2)cc1 | i

16 compounds out of the list, arranged by formula weight, low to high.
SMILES | H5N1 CPE
C1CSC2(N1)C1CC3CC(C1)CC2C3 (stereo unspecified) | 0.1
CC(C)(C)c1ccc(-c2cc(N)n[nH]2)cc1 | i
COc1ccc(NC(=O)Nc2ccccc2F)cc1 | 1.1
Cc1cc2ncn(C(=O)c3ccc4c(c3)OCO4)c2cc1C | 0.7
Cc1ccc(C)n1-c1ccc(C(=O)NCC2CCCO2)cc1 (stereo unspecified) | 0.6
Cn1c(=O)c2c(O)cc(=O)n(-c3ccccc3)c2n(C)c1=O | i
N#Cc1nc(-c2ccco2)oc1N1CCC(Cc2ccccc2)CC1 | 0.5
Cc1ccc(C)c(N2CCN(C(=O)c3cc4sccc4n3C)CC2)c1 | i
CC(=O)c1cccc(NC(=O)CN2C(=O)COc3ccc(Cl)cc32)c1 | i
O=C(CSc1nnnn1C1CCCCC1)Nc1ccc2c(c1)OCO2 | 0.3
Cc1ccc(S(=O)(=O)N2CCOCC2)cc1C(=O)NC1CCCCC1 | 0.4
CCC(C(=O)NCc1ccco1)n1nc(-c2ccc(OC)cc2)ccc1=O (stereo unspecified) | i
Cn1c(SCC(=O)NC(=O)NCc2ccco2)nnc1-c1ccccc1 | i
COC(=O)c1sc(NC(=O)CSc2nc3cccnc3n2C2CCCCC2)nc1C | i
O=C(COC(=O)CCc1ccc(S(=O)(=O)N2CCOCC2)cc1)Nc1ccc(Cl)cn1 | i
CCn1cc(C(=O)NCc2ccco2)c(=O)c2cc(F)c(N3CCN(C(=O)c4ccco4)CC3)cc21 | i

The list goes on:
SMILES | H5N1 CPE
CCOP(=O)(OCC)C(C)(C)NC(=O)c1cc([N+](=O)[O-])cc([N+](=O)[O-])c1 | 0.1
Clc1ccc(OCc2nnc(SCc3nc4ccccc4[nH]3)n2Cc2ccco2)cc1 | i
CCOc1ccc(C2/C(=C(/O)c3ccc(OC)cc3)C(=O)C(=O)N2c2cc(C)on2)cc1OC (stereo unspecified) | 0.5
Fc1ccc(C2CC(c3ccccc3)n3ncnc3N2)cc1 (stereo unspecified) | 0.3
Cn1c(=O)c(Cc2ccccc2)c(O)c2ccccc21 | i
COc1ccc(-n2c(SCC(=O)N3CCOCC3)nc(O)c(Cc3ccccc3)c2=O)cc1 | 0.2
Nc1nonc1C(=O)NCCNCc1ccccc1OCc1ccc(F)cc1 | 0.1
COc1cccc(-c2cc(C(F)(F)F)nc(N3CCC(C)CC3)n2)c1 | i
CCOC(=O)C1(c2ccccc2)NC(c2ccccc2C)C2C(=O)N(c3ccc4c(c3)OCO4)C(=O)C21 (stereo unspecified) | i
CCOC(=O)N1CCN(/C=C(\C#N)c2nc3ccccc3s2)CC1 | i
CC1CC(C)CN(c2ccc(-n3cnnn3)cc2[N+](=O)[O-])C1 (stereo unspecified) | i
Clc1ccc(/C=C/c2nc3ccccc3[nH]2)cc1 | i
CN(C)S(=O)(=O)c1ccc(S(=O)(=O)N2CCN(CCC#N)CC2)cc1 | 0.7
Cc1ccc2c(CSc3nc4ccccc4c(=O)n3CCCO)cc(=O)oc2c1C | 0.6
Brc1ccc(-c2cn3ccccc3n2)s1 | i
CC(C)(C)C1CCC2(CC1)C(C#N)=C(SCC(=O)NC1CCCCC1)NC(=O)C2C#N (stereo unspecified) | i
Cc1ccc(C)c(S(=O)(=O)N2CCN(CC(=O)Nc3cc(C)on3)CC2)c1 | i
Cn1c(SCC(=O)Nc2ccc(F)cc2F)nnc1-c1cccnc1 | i
Cc1nc(NC(=O)C23CCC(C)(C(=O)O2)C3(C)C)sc1C (stereo unspecified) | 1.1
O=C(c1cccc(F)c1)N1CCC(O)(c2cccnc2)CC1 | i
CCOC(=O)c1cc2c(=O)n3cccc(C)c3nc2n(Cc2ccco2)c1=NC(=O)c1cccnc1 | 7.7
COC(=O)c1ccc(CSc2nnc(Nc3cccc(OC)c3)s2)o1 | i
COc1cc(NC(=O)C2CCCO2)c(OC)cc1NC(=O)c1ccccc1 (stereo unspecified) | 0.8
CCC(=O)c1ccc(OCC(=O)O)cc1 | i
CCOc1ccc(C(=O)CN2CCN(S(=O)(=O)c3ccc(OC)cc3)CC2)cc1 | i
O=S(=O)(NCC1CCCO1)c1ccc(Br)s1 (stereo unspecified) | 0.3
CCOCCc1nnc(NC(=O)CN2C(=O)c3ccccc3C2=O)s1 | 0.2
CCc1cccc(NS(=O)(=O)c2ccc3c(c2)oc(=O)n3C)c1 | 0.9
COc1ccc(-n2nc(C(=O)NCC(=O)NCc3ccco3)c3ccccc3c2=O)c(OC)c1 | i
CCc1nc2sc3ccccc3c(=O)c2c(=O)n1Cc1ccco1 | i
O=S(=O)(N1CCCCC1)N1CCN(CC(O)COc2ccc3cc(Br)ccc3c2)CC1 (stereo unspecified) | i
O=C1CC(N2CCC(Cc3ccccc3)CC2)C(=O)N1CCc1ccccc1 (stereo unspecified) | i
C=CCOc1c(CNc2cccc(C(=O)O)c2)cccc1OCC | 0.7
CSc1nc2ccccc2cc1/C=C(\C#N)c1ccccc1 | i
CC(C)(C)n1ncc2c(=O)n(CC(=O)NCc3ccco3)cnc21 | 1.4
O=C(NN=C1C2CC3CC(C2)CC1C3)c1cc(Cl)ccc1O | 2.8
CCn1c(CCCNC(=O)c2ccc(F)cc2)nc2ccccc21 | 0.3
O=C(NCCN1CCOCC1)c1ccccc1Oc1ccccc1 | 0.2
Cc1nc2nc(COc3ccccc3)[nH]n2c(=O)c1Cl | i
O=C(Oc1nsnc1N1CCOCC1)c1ccccc1 | 0.4
CCc1nc2ccccc2n1Cc1cc(=O)n2cc(C)ccc2n1 | i
CCN(CC)C(=O)COc1ccc(-c2ccccc2)cc1 | 1.1
COCc1cc(C)n(CC(=O)Nc2ccccc2OC)c(=O)c1C#N | 0.1
O=C(Cc1coc2ccc3ccccc3c12)N1CCN(c2ncccn2)CC1 | i
CC(C)(C)NC(=O)C(c1ccco1)N(C(=O)Cn1nnc(-c2ccc(F)cc2)n1)c1cccc(F)c1 (stereo unspecified) | 2.3
CN(C)CCNc1nc(-c2ccccc2)nnc1C(F)(F)F | 0.2
Cc1cc(C(=O)Nc2sc3c(c2C#N)CCCC3)no1 | i
Cc1cc(=O)oc(C)c1C(=O)Nc1ccc2nsnc2c1 | i
O=[N+]([O-])c1cc(S(=O)(=O)N2CCCC2)ccc1N/N=C/c1cccs1 | 1.1
COc1ccc(C(c2nnnn2CC2CCCO2)N2CCN(c3ccccc3)CC2)cc1 (stereo unspecified) | 0.2

Retrieved by compound from above (2):
SMILES | H5N1 CPE
O=C(Cc1coc2ccc3ccccc3c12)N1CCN(c2ncccn2)CC1 | i
O=[N+]([O-])c1cc(S(=O)(=O)N2CCCC2)ccc1N/N=C/c1cccs1 | 1.1

Next results follow:
SMILES | H5N1 CPE
O=C(CCCc1ccccc1)NCc1cccnc1 | i
Cc1ccc2c(CN3CCN(S(=O)(=O)c4ccc5c(c4)OCCO5)CC3)cc(=O)oc2c1C | 1.0
CN(C(=O)c1ccno1)c1nnc(-c2cnccn2)s1 | i
O=C(OC1CCCCC1)c1ccc(NC(=O)c2ccco2)cc1 | i
O=c1[nH]c(N2CCCCC2)nc2c1CCCC2 | 2.5
CCOC(=O)c1cnc2ccc(OCC)cc2c1N1CCN(C)CC1 | 0.5
O=C(O)CC1NC(=S)N(c2ccccc2)C1=O (stereo unspecified) | i
O=C1C(c2ccccc2)=C(N2CC2)c2ccccc21 | 0.3
O=C(NCCc1ccccc1)c1cc(-c2ccc3c(c2)OCO3)on1 | i
CCn1c(SCC(=O)NCCOC)nc2sc(C)c(C)c2c1=O | 1.5
COC(=O)C1C2CCC(C2)C1C(=O)OCC(=O)c1ccc(C)cc1 (stereo unspecified) | 0.1
Clc1ccc(-n2c(SCc3nc4ccccc4[nH]3)nnc2-c2ccncc2)cc1 | i
COC(=O)c1cc(-c2cccc(OC)c2)n[nH]1 | i
O=C(c1ccco1)N1CCN=C1SCc1cccc(F)c1 | 0.2
COc1nc(Oc2ccc(C(=O)OCC(N)=O)cc2)nc(N(C)C)n1 | i
Cc1cccc2cc3c(NC(=O)c4ccccn4)nn(C)c3nc12 | i
Cc1cc(C(=O)N=Nc2c(O)n(C(C)C)c3ccccc23)n[nH]1 | 0.2
O=C(Nc1ccc(Oc2ccc3ccccc3c2)cc1)c1ccco1 | i
CSc1ccccc1NC(=O)COc1ccccc1Cl | 2.0
CCN1C(=O)c2cccc3c(NC(=O)C4CCCCC4)ccc1c23 | i
CCCCOc1ccc(NC(=O)c2cnc(C)cn2)cc1 | 0.1
COC1(OC)N=C(N)C2(C#N)C(c3ccc4c(c3)OCO4)C12C#N (stereo unspecified) | i
Cc1ccc2nc(SCc3nnc(-c4cccs4)o3)[nH]c2c1 | 1.4
O=C(O)Cn1c(-c2ccccc2)nc2ccccc21 | i
CCC(C)(C)NC(=O)CN(C(=O)CCC(=O)Nc1ccccn1)c1ccc(F)c(Cl)c1 | i
CCCC(=O)Nc1nnc(-c2cccc(OCC)c2)s1 | 0.1
O=C(Nc1cc(C(F)(F)F)ccc1Cl)c1cc(C2CC2)on1 | i
Fc1cccc(Oc2nc3ccccc3n3cccc23)c1 | 0.8
Clc1ccc(N2CCCCCC2)nn1 | 0.4
O=C(CCc1ccccc1)Nc1ncc2c(n1)CCCC2=O | 0.0
CC(C)CNC(=O)c1c2c(nc3ccccc13)-c1ccccc1CC2 | 0.8
CN(C)S(=O)(=O)c1ccccc1C#N | 0.0
Nc1nnc(CCS(=O)(=O)c2cc(Cl)ccc2Cl)s1 | 0.4
CCCCOc1cccc(OCCCC)c1C(=O)Nc1cc(C)on1 | i
CC1(C)CC(NC(=O)CCC2CCCC2)CC(C)(C)N1 | 1.1
CCOc1ccc2nc(NCCNC(=O)Nc3cccc(C)c3)c(C#N)cc2c1 | 1.4
CCCCCCC1NC(C(=O)O)CS1 (stereo unspecified) | i
Cc1ccc2ncnc(Nc3ccc(C)c(C)c3)c2c1 | i

Screens from PubChem BioAssay.

These rows are one share of the data. The share of hits here may be higher or lower than overall.
